DUX4 txn inh: DUX4-mediated transcription inhibition | 293T-iDUX4 ZSCAN4-Gaussia luciferase reporter, 24 h; hits give low values | activity change, negative = inhibition, % (no concentration beside the values) | 37,000 tested, 0.8% active | AID 1224904;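 active = -10% or lower and over 25 points stronger than a control reporter; inconclusive = -10% or lower with a smaller gap; inactive = above -10%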;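 also: 0% = median of neutral control wells and -100% = median of positive control wells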
DUX4 txn inh difference: recorded beside DUX4 txn inh, whose call it bears; Gaussia minus Italica difference, %; measured here: selective DUX4 reporter inhibition;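 worked out from the two reporters; negative = selective loss of the DUX4 reporter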
DUX4 txn inh control: also measured in DUX4 txn inh; calls as there; activity change, negative = inhibition, %; measured here: Italica tet-on control reporter;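 0 = neutral control and -100 = positive control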
* marks the source's active call; other numbers are inactive results; ? = inconclusive; . = no result given; & = joins results of further samples.

Under each structure – DUX4 txn inh	DUX4 txn inh difference	DUX4 txn inh control
CC=Cc1ccc2n(c1=O)C[C@@H]1[C@@H](CO)[C@H](C(=O)NCCC)N(CC3CC3)[C@H]21 (mixture of isomers)
 : -2	-8	6.2
C[C@H](NC(=O)C[C@@H]1C=C[C@@H](NC(=O)CN2CCOCC2)[C@@H](CO)O1)c1ccccc1
 : -1	-1	0.6
COc1cccc(NC(=O)N[C@H]2C=C[C@@H](CC(=O)Nc3ccc(-c4ccccc4)cc3)O[C@H]2CO)c1
 : -2	2	-4.5
COc1ccc(CN2[C@@H]3CN(C(=O)C4CC4)c4ccccc4[C@@H]3[C@@H]2CO)cc1
 : 4	1	2.8
C[C@@H]1CN([C@H](C)CO)C(=O)c2cc(C#Cc3ccccc3F)cnc2O[C@@H]1CN(C)C(=O)Cc1cccnc1
 : -3	-6	3.0
COc1cccc(-c2ccc(C3[C@H]4CNC[C@@H]3N4C(=O)Nc3ccc4c(c3)OCO4)cc2)c1 (stereo partly specified)
 : 17&7	8&-3	9.5&9.9
O=C(C[C@@H]1C[C@@H]2c3cc(NC(=O)C4CCOCC4)ccc3O[C@@H]2[C@H](CO)O1)NCCN1CCCCC1
 : 10	3	7.7
CN1C(=O)c2cc(NC(=O)Cc3ccccc3)ccc2OC[C@H]2O[C@@H](CC(=O)NCc3ccc(Cl)cc3)CC[C@H]21
 : -1	2	-2.7
C[C@@H]1CN([C@@H](C)CO)C(=O)CCCn2nncc2CO[C@H]1CN(C)Cc1ccc(-c2ccccc2)cc1
 : ?	.	.
C/C=C/c1ccc2c(c1)[C@H]1[C@H](CCN1S(=O)(=O)c1cn(C)cn1)[C@H](CO)N2
 : 11	7	3.6
CO[C@@H]1CC[C@@H]2CCOc3ccc(C#N)cc3C(=O)N(C)C[C@@H](OC)[C@H](C)C(=O)N(C)C[C@@H]1O2
 : -2	-3	1.4
Cc1ccc(S(=O)(=O)N2C[C@H](O)COC[C@H]3O[C@H](CC(=O)N[C@H]4CCN(Cc5ccccc5)C4)CC[C@@H]32)cc1
 : -2	-1	-0.6
CCCC(=O)Nc1ccc2c(c1)C(=O)N(C)[C@@H]1CC[C@@H](CC(=O)NCC(F)(F)F)O[C@H]1CO2
 : 4	6	-2.0
CCS(=O)(=O)Nc1ccc2c(c1)C(=O)N(C)[C@@H]1CC[C@H](CC(=O)NC)O[C@@H]1CO2
 : -2	3	-5.0
O=C(C[C@H]1C=C[C@@H](NC(=O)c2ccccn2)[C@@H](CO)O1)NCc1cccc(F)c1
 : 2	1	1.5
COC(=O)[C@H]1[C@H](CO)[C@H]2Cn3c(ccc(-c4ccccc4)c3=O)[C@H]2N1C(=O)CC1CC1
 : 3	-2	4.5
COCC(=O)N1[C@H](CO)[C@H](c2ccccc2)C12CN(C(=O)NC1CCCC1)C2
 : 14	8	6.1
COc1ccc(C(=O)Nc2ccc3c(c2)C(=O)N(C)C[C@H](OC)[C@H](C)CN(C)[C@H](C)CO3)cc1
 : 0	1	-0.6
CCOC(=O)N(C)C[C@@H]1OCc2cnnn2CCCC(=O)N([C@H](C)CO)C[C@H]1C
 : -1	-2	0.5
CCCN(C)C[C@H]1OCCCC[C@@H](C)Oc2ccc(N(C)C)cc2C(=O)N([C@H](C)CO)C[C@@H]1C
 : -3	-1	-1.8

An excerpt from above in order of their number in DUX4 txn inh control, falling.
Under each structure – DUX4 txn inh	DUX4 txn inh difference	DUX4 txn inh control
COCC(=O)N1[C@H](CO)[C@H](c2ccccc2)C12CN(C(=O)NC1CCCC1)C2
 : 14	8	6.1
COC(=O)[C@H]1[C@H](CO)[C@H]2Cn3c(ccc(-c4ccccc4)c3=O)[C@H]2N1C(=O)CC1CC1
 : 3	-2	4.5
O=C(C[C@H]1C=C[C@@H](NC(=O)c2ccccn2)[C@@H](CO)O1)NCc1cccc(F)c1
 : 2	1	1.5
CCOC(=O)N(C)C[C@@H]1OCc2cnnn2CCCC(=O)N([C@H](C)CO)C[C@H]1C
 : -1	-2	0.5
CCCN(C)C[C@H]1OCCCC[C@@H](C)Oc2ccc(N(C)C)cc2C(=O)N([C@H](C)CO)C[C@@H]1C
 : -3	-1	-1.8
CCCC(=O)Nc1ccc2c(c1)C(=O)N(C)[C@@H]1CC[C@@H](CC(=O)NCC(F)(F)F)O[C@H]1CO2
 : 4	6	-2.0

Next section.
Under each structure – DUX4 txn inh	DUX4 txn inh difference	DUX4 txn inh control
CC=Cc1ccc2n(c1=O)C[C@H]1[C@H](CO)[C@@H](C(=O)N3CCOCC3)[C@@H]2N1CC1CCCC1 (mixture of isomers)
 : -2	-3	0.7
CN1c2ccc(-c3ccccc3)cc2[C@@H]2[C@@H](CCN2C(=O)c2ccc(F)cc2)[C@@H]1CO
 : 2	6	-4.1
O=C(C[C@H]1CC[C@H]2NC[C@@H](O)COC[C@@H]2O1)Nc1nccs1
 : 11	8	2.7
CO[C@H]1CN(C)C(=O)c2ccc(NS(=O)(=O)c3ccccc3C)cc2OC[C@H](C)N(C)C[C@H]1C
 : 3	-3	6.5
CN1CCN(C(=O)C[C@@H]2CC[C@H]3[C@@H](COC[C@H](O)CN3Cc3cccc(-c4ccncc4)c3)O2)CC1
 : 8	12	-4.2
CN1CCN(C(=O)c2cc3c(c(-c4cccc(-c5ccccc5F)c4)n2)[C@H](CCO)N([S@@](=O)C(C)(C)C)C3)CC1
 : 4	3	1.2
COCC(=O)NC[C@H]1[C@H](c2ccc(C3=CCCC3)cc2)[C@@H](CO)N1C(C)=O
 : -1	3	-3.8
CCc1cnc(N2[C@@H](C#N)[C@@H](c3ccc(-c4cccc(F)c4)cc3)[C@@H]2CO)s1
 : -1	-3	2.4
CCCNC(=O)C[C@H]1CC[C@@H]2[C@H](COC[C@H](O)CN2C(=O)Nc2ccc3c(c2)OCO3)O1
 : -6	-15	8.7
COCC(=O)N1[C@@H](CO)[C@@H]2c3ccccc3N(C(=O)C3CC3)C[C@@H]21
 : -1	-5	3.8
COc1ccc(CN2[C@H](CO)[C@H]3c4ccccc4NC[C@H]32)cc1
 : 0	3	-3.5
Cc1noc(C)c1NC(=O)NCC[C@H]1CC[C@H](NC(=O)Cc2cccnc2)[C@H](CO)O1
 : 0	-2	1.3
COc1ccccc1-c1ccc2c(c1)[C@H]1[C@H](CCN1C(=O)C1CCOCC1)[C@@H](CO)N2
 : 10	6	4.4
COCC(=O)Nc1ccc2c(c1)OC[C@@H](C)N(C(=O)CN1CCOCC1)C[C@@H](C)[C@H](OC)CN(C)C2=O
 : 1	-2	2.8
CN(C)CC(=O)N[C@H]1CC[C@@H](CCNC(=O)C2CCC2)O[C@@H]1CO
 : 0	-4	3.9
COc1ccccc1S(=O)(=O)N1CC[C@@H]2[C@H](CO)Nc3ccc(-c4ccc(F)cc4)cc3[C@@H]21
 : ?	.	.
CN1c2ccc(C3=CCCCC3)cc2[C@@H]2[C@@H](CCN2C(=O)Cc2ccccn2)[C@H]1CO
 : 7	3	4.3
CO[C@@H]1CN(C)C(=O)c2ccc(NC(=O)Cc3ccccc3)cc2OC[C@@H](C)N(C(C)=O)C[C@@H]1C
 : 6	7	-0.5
CCCN1[C@@H]2c3ccc(-c4ccc(OC)cc4)c(=O)n3C[C@@H]2[C@@H](CO)[C@@H]1C(=O)OC
 : 4	4	0.9
CCc1cnc(N2[C@@H](C#N)[C@H](c3ccc(C#CC(C)C)cc3)[C@@H]2CO)s1
 : 4	2	2.2
CN1CCN(C(=O)C[C@H]2C=C[C@H](NC(=O)Cc3ccccn3)[C@@H](CO)O2)CC1
 : 6	10	-4.2
CCC(=O)N1[C@H](CO)[C@H]2c3ccccc3N(C(=O)c3cccc(OC)c3)C[C@H]21
 : -4	-3	-1.5
CNC[C@@H]1Oc2ccc(NS(=O)(=O)c3cn(C)cn3)cc2CC(=O)N([C@@H](C)CO)C[C@@H]1C
 : 3	3	-0.5
CCS(=O)(=O)Nc1ccc2c(c1)C(=O)N(C)[C@H]1CC[C@H](CC(=O)Nc3ccccc3C)O[C@@H]1CO2
 : 1	0	1.3
CN(C)C(=O)c1ccc(-c2ccc3c(c2)[C@@H]2[C@@H](CCN2C(=O)c2ccccn2)[C@@H](CO)N3C)cc1
 : 1	-1	2.0
C[C@@H]1CN([C@H](C)CO)C(=O)CCCn2nncc2CO[C@@H]1CN(C)Cc1cccc(O)c1
 : 0	-1	1.6
COCCNC(=O)[C@@H]1[C@@H](CO)[C@@H]2Cn3c(ccc(-c4cccc(F)c4)c3=O)[C@H]1N2C(=O)NC(C)C
 : -1	0	-0.9
Cc1ccc(S(=O)(=O)N2C[C@H](O)COC[C@@H]3O[C@H](CC(=O)NCCN4CCCCC4)CC[C@H]32)cc1
 : 10	7	3.3
CN(C)CC(=O)N1CC2(C1)[C@@H](c1ccccc1)[C@@H](CO)N2C(=O)C1CCCCC1
 : -7	-2	-4.8
CC(C)CC#Cc1ccc([C@H]2[C@H](CO)N3C(=O)CN(C(=O)Cc4cccnc4)C[C@@H]23)cc1
 : 1	0	1.0
CN1CCN(C(=O)C[C@@H]2C[C@H]3c4cc(NC(=O)c5ccc6c(c5)OCO6)ccc4O[C@H]3[C@H](CO)O2)CC1
 : 11	8	3.6
CC(C)(C)S(=O)N1Cc2cc(C(=O)NCc3ccc(Oc4ccccc4)cc3)nc(-c3cccc(-c4cccc(F)c4)c3)c2[C@@H]1CCO (stereo partly specified)
 : -3	0	-3.1
CC=Cc1ccc2n(c1=O)C[C@@H]1[C@@H](CO)[C@H](C(=O)NCc3ccccc3)N(S(C)(=O)=O)[C@H]21 (mixture of isomers)
 : 8	10	-2.2
CN1C(=O)c2cc(NC(=O)c3cccc(Cl)c3)ccc2OC[C@@H]2O[C@H](CC(=O)NC3CCCCC3)CC[C@H]21
 : -4	-2	-1.5
CC(=O)N1[C@H](CO)[C@@H](c2ccccc2)[C@H]1CN(C)C(=O)CN1CCOCC1
 : 0	-6	6.2
COC(=O)C[C@@H]1CC[C@H]2[C@@H](COc3ccc(NC(=O)c4cscn4)cc3C(=O)N2C)O1
 : -4	-9	5.2
CCCC#Cc1ccc([C@H]2[C@@H](C#N)N(S(C)(=O)=O)[C@H]2CO)cc1
 : 1	2	-0.7
C[C@H](NC(=O)C[C@@H]1C[C@@H]2c3cc(NC(=O)NC4CCCCC4)ccc3O[C@@H]2[C@H](CO)O1)c1ccccc1
 : 0	1	-0.8
CC(=O)NC[C@@H]1[C@@H](c2ccccc2)[C@@H](CO)N1C(=O)Cc1cccnc1
 : -4	-2	-2.2
CN(C)C(=O)c1cccc(-c2ccc(C3[C@@H]4CN(Cc5nccs5)C[C@H]3N4)cc2)c1 (stereo partly specified)
 : 11&-9	4&-4	6.7&-5.2
Cc1ccccc1-c1ccc([C@@H]2[C@H](CO)N3CCCCN(S(=O)(=O)Cc4ccccc4)C[C@@H]23)cc1
 : ?	.	.
O=C(Nc1ccc2c(c1)[C@@H]1C[C@H](CC(=O)N3CCc4ccccc4C3)O[C@@H](CO)[C@@H]1O2)C1CCOCC1
 : -4	-1	-3.0
COCC(=O)Nc1ccc2c(c1)C(=O)N(C)C[C@@H](OC)[C@H](C)CN(C(=O)c1ccncc1)[C@H](C)CO2
 : -3	-6	3.1
O=C(c1ccc(F)cc1)N1CC[C@@H]2[C@H]1c1cc(C#Cc3ccccc3F)ccc1N[C@@H]2CO
 : -1	-23	21
C[C@@H]1CN([C@@H](C)CO)C(=O)c2c(c3ccccc3n2C)-c2ccccc2CO[C@H]1CN(C)S(=O)(=O)c1cccs1
 : -5	-4	-1.1
C[C@@H]1CN([C@H](C)CO)S(=O)(=O)c2ccc(C#Cc3cccnc3)cc2O[C@H]1CN(C)C(=O)Nc1ccc2c(c1)OCO2
 : -2	-2	0.0
COCC(=O)N1[C@H](C#N)[C@H](c2ccccc2-c2cccc(OC)c2)[C@@H]1CO
 : 14	7	7.5
O=C(Nc1ccccc1)Nc1ccc2c(c1)[C@@H]1C[C@H](CC(=O)N3CCCCC3)O[C@H](CO)[C@@H]1O2
 : 2	-1	3.5
O=C(CCN1CCCCC1)NCC[C@@H]1CC[C@@H](NC(=O)Cc2cccnc2)[C@H](CO)O1
 : 5	3	2.0
O=C(C[C@@H]1CC[C@@H]2[C@H](COC[C@@H](O)CN2C(=O)Nc2ccc(Cl)cc2)O1)NCCc1ccncc1
 : 5	-5	11

(listing goes on)
Under each structure – DUX4 txn inh	DUX4 txn inh difference	DUX4 txn inh control
CCCC#Cc1ccc([C@H]2[C@H](CO)N3C(=O)CN(S(=O)(=O)Cc4ccccc4)C[C@@H]23)cc1
 : 6	-2	8.0
OC[C@@H]1Nc2ccc(C#Cc3ccc(F)cc3)cc2[C@H]2[C@@H]1CCN2Cc1ccc2c(c1)OCO2
 : 1	-2	3.0
CNC[C@H]1OCCCC[C@H](C)Oc2ccc(NS(=O)(=O)c3ccc(F)cc3)cc2C(=O)N([C@H](C)CO)C[C@@H]1C
 : 4	4	0.3
O=C(Nc1cccc(F)c1)N1CCCCN2[C@H](C1)[C@@H](c1ccc(C#Cc3cccnc3)cc1)[C@@H]2CO
 : 0	-3	3.2
CO[C@H]1CN(C)C(=O)c2cc(NC(=O)NC(C)C)ccc2OC[C@H](C)N(C(=O)C2CCC2)C[C@H]1C
 : -2	-1	-0.7
C[C@@H]1CCn2cc(nn2)COC[C@H](C)NC1=O
 : -4	-3	-0.4
COc1ccccc1NC(=O)N1C[C@H](O)COC[C@@H]2O[C@@H](CC(=O)NCCc3ccccc3)CC[C@H]21
 : 5	3	2.5
O=C(NCc1ccc2c(c1)OCO2)[C@H]1[C@H](CO)[C@H]2Cn3c(cccc3=O)[C@@H]1N2Cc1cncnc1
 : 3	-5	7.8
C[C@@H]1CN([C@@H](C)CO)C(=O)c2ccccc2-c2ccccc2CO[C@H]1CN(C)S(=O)(=O)c1ccccc1F
 : 8	0	8.0

From PubChem

Not all compounds are listed, so the mix of outcomes need not match the whole.
